Screening results as filed in PubChem.
RE007 growth inh – less growth of the S. pombe RE007 Vpr strain | S. pombe RE007 Vpr strain, BacTiter-Glo ATP luminescence, 24 h; control for the full effect not named in the record | Potency, µM (doses to about 92.2 µM), for inactives: top-dose activity change, negative = less growth | 360,000 tested, 0.21% active | AID 651644; active = well fitted falling curve with a large enough effect; inconclusive = small, poorly fitted or top-dose-only effect; inactive = no such curve, though single readings can be large or run the other way;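 note: % is set by controls: 0 for no effect and ±100 for the full control effect; nearly all actives have a fitted effect of over 50% in size; the assay follows cell death caused by Vpr and the record does not say whether a fall means rescue or toxicity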
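Fission yeast RE007 carrying one integrated HIV-1 vpr copy, seeded at OD 0.01 in PMG+AL medium with 23 nL pinned compound. Grown 24 h at 30 degrees; viability read by BacTiter-Glo luminescence after 5 min.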
Cruzain Triton – cruzain (T. cruzi) inhibition with detergent; P25779; purified cruzain, Z-FR-AMC fluorescence, 0.01% Triton; Potency, µM, for the others: max response, negative = inhibition, hits mostly inhibitors; 200,000 tested, 0.43% active; active = well fitted curve in the direction sought with a large enough effect; inconclusive = small, poorly fitted or top-dose-only effect, or another doubt; inactive = no such curve, though single readings can be large; an effect the other way counts as inactive or inconclusive;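 note: plate controls were neutral wells for no effect and buffer without enzyme for full effect; nearly all actives have a fitted effect of over 40% in size; top concentration of the series not given in the record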
Target sequence (P25779 123-467 limits assumed): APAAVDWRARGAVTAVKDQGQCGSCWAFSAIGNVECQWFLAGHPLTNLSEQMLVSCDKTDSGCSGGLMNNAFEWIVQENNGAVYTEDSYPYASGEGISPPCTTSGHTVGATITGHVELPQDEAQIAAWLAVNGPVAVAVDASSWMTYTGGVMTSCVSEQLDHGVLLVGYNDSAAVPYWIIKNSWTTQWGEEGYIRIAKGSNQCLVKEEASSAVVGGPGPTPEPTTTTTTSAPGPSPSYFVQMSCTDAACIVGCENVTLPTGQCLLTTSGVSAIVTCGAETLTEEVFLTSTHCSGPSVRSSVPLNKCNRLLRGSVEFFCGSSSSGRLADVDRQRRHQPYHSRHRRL
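Steps: dispense cruzain (1.5 nM final) in acetate buffer pH 5.5 with DTT and 0.01% Triton X-100; pin-transfer compounds; incubate 15 min RT; add Z-FR-AMC (2 uM final); read fluorescence every 30 s, using the 60 s intensity change.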
LASV entry inh – inhibitors of Lassa virus binding or cell entry; Lassa virus pseudotype entry inhibition, cell reporter; control for the full effect not named in the record; Potency, µM (series often up to 37.9 µM), inactives show at the highest dose activity change, negative = inhibition, actives largely listed as inhibitors; 300,000 tested, 1.2% active; active means well fitted inhibition curve with a large enough effect; inconclusive means small, poorly fitted or top-dose-only effect, or effect the other way; inactive means flat fitted curve, though single readings scatter; tested in HEK293 cells; note: % is set by controls: 0 for no effect and ±100 for the full control effect; nearly all actives have a fitted effect of over 50% in size; luciferase read-out
NS1 inh – inhibitors of influenza NS1 protein function; S. cerevisiae slowed by influenza A NS1, growth recovery by OD600; 270,000 tested, 0.4% active; AID 2326; Potency, µM (doses to about 46.1 µM), inactives show top-dose activity, positive = more growth; note: actives are rising curves; nearly all actives have a fitted effect of over 50% in size
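In this qHTS, NS1 from influenza A is expressed in budding yeast, where it slows growth. Cells are switched from glucose to 2% galactose medium (pH 6.0, -URA), treated with compound, and growth recovery is read at OD600.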
Cruzain noTriton – cruzain (T. cruzi) inhibition without detergent. P25779. Potency, µM, for inactives: max response, negative = inhibition, actives largely listed as inhibitors. purified cruzain, Z-FR-AMC fluorescence, no detergent. AID 1476. 200,000 tested, 2.3% active; active = well fitted curve in the direction sought with a large enough effect; inconclusive = small, poorly fitted or top-dose-only effect, or another doubt; inactive = no such curve, though single readings can be large; an effect the other way counts as inactive or inconclusive;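 note: plate controls were enzyme without inhibitor for no effect and buffer without enzyme for full effect; nearly all actives have a fitted effect of over 40% in size; top concentration of the series not given in the record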
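Purified cruzain at 1.5 nM, pre-incubated 15 min with compound at room temperature in 100 mM sodium acetate pH 5.5, 5 mM DTT, 0.00005% Triton X-100. Reaction started with 2 uM Z-FR-AMC; AMC fluorescence increase over 60 s gives rate.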
Marburg entry inh – Marburg virus entry inhibition; Marburg virus pseudotyped entry inhibition, cell reporter; control for the full effect not named in the record; about a third of the inactives were read at about 46 µM; Potency, µM (series often up to 37.8 µM), for inactives: top-dose activity change, negative = inhibition, hits mostly inhibitors; 300,000 tested, 1.8% active; AID 540276; active = well fitted inhibition curve with a large enough effect; inconclusive = small, poorly fitted or top-dose-only effect, or effect the other way; inactive = flat fitted curve, though single readings scatter; tested in HEK293 cells; about a fifth of its hits are not listed in these tables; note: % is set by controls: 0 for no effect and ±100 for the full control effect; luciferase read-out
StopGo reporter – FMDV 2A StopGo reporter, luciferase signal; human cells with a luciferase reporter of 2A StopGo recoding; control for the full effect not named in the record; Potency, µM (titrated, usually from 57.9 µM), for the others: at the top dose signal change, negative = less light; 410,000 tested, 1.2% active; AID 1159524; active = well fitted falling curve with a large enough effect; inconclusive = small, poorly fitted or top-dose-only effect; inactive = no such curve, though single readings can be large or run the other way; tested in HEK293T cells; note: % is set by controls: 0 for no effect and ±100 for the full control effect; nearly all actives have a fitted effect of over 45% in size; luciferase light after 4 h
SARS PLpro yeast – blocks SARS-CoV papain-like protease in a yeast assay; S. cerevisiae expressing SARS-CoV PLpro, growth rescue; control for the full effect not named in the record; Potency, µM (titrated, usually from 32.9 µM), without a hit: top-dose activity, positive = growth rescue; 330,000 tested, 0.19% active; AID 485353; note: 0% is about no effect; nearly all actives have a fitted effect of over 55% in size; growth read by luminescence after 48 h
* marks the source's active call; other numbers are inactive results; u = inconclusive; x = not tested or not shown; & = joins results of further samples; [ ] = dose if it differs, or a comment. Unless noted, calls come from the whole dose curve; as a rule, active means well fitted rising curve with a large enough effect; inconclusive means small, poorly fitted or top-dose-only effect; inactive means no such curve, though single readings can be large or run the other way. Potency is the fitted concentration of half-maximal effect. The order is random, and some 4.8% of all compounds hit somewhere here.

SMILES	RE007 growth inh	Cruzain Triton	LASV entry inh	NS1 inh	Cruzain noTriton	Marburg entry inh	StopGo reporter	SARS PLpro yeast
COc1cccc(NS(=O)(=O)c2ccc(-c3coc(C)n3)cc2)c1	-5%	x	x	5%	x	x	-2%	-1%
Cc1cc(C)c(NC(=O)c2ccc3nccnc3c2)c(C)c1	2%	x	4%	x	x	0%[46.1 µM]	3%	-6%
O=C(CSc1nc2ccccc2c(=O)n1-c1ccccc1Cl)Nc1cccc(S(=O)(=O)N2CCOCC2)c1	-9%	-4.1%	-12%	11µM*	u	-29%	-16%	24%
CCOc1ccc(N(C)S(=O)(=O)c2ccc(-c3ccc(=O)[nH]n3)s2)cc1	8%	x	u	9%	x	-22%[46.1 µM]	-6%	2%
CCN(C(=O)c1cccc(S(=O)(=O)N2CCCCC2)c1)C1CCS(=O)(=O)C1 (stereo not given)	0%	x	-3%	x	x	7%	8%	-1%
Cc1ccc(NC(=O)CO/N=C(\N)c2nonc2N)cc1	12%	-1.6%	-1%	0%	3%	0%	22%	0%
COc1ccc(S(=O)(=O)Nc2c(C(=O)O)[nH]c3ccccc23)cc1	2%	x	x	-1%	x	x	1%	2%
COc1ccc(CN2CCN(C3CCC3)CC2CCO)c(F)c1 (stereo not given)	-1%	x	x	1%	x	x	0%	14%
C=CCNC(=O)c1oc2ccc(S(=O)(=O)N(CC)CC)cc2c1C	13%	3.0%	u	-2%	2%	12%	-23%	3%
C[N+](C)(C)C(Cc1ccccc1)C(=O)[O-] (stereo not given)	9%	x	x	7%	x	x	-10%	8%
O=C1CCCc2[nH]nc(-c3cccnc3)c21	-10%	0.5%	-13%	5%	-10%	10%	-5%	16%
S=c1[nH]c(-c2ccccc2)cn1/N=C/c1cccnc1	20%	x	x	10%	x	x	13%	0%
CCOC(=O)c1cc2c(=O)n3ccccc3nc2n(CCOC)c1=NC(=O)c1c(-c2ccccc2Cl)noc1C	x	-0.5%	u	x	0%	3%[46.1 µM]	-18%	x
CSc1nncn1/N=C/c1ccc([N+](=O)[O-])cc1	19%	x	0%	-2%	x	16%[46.1 µM]	-5%	-1%
CCSc1oc(-c2ccco2)nc1S(=O)(=O)c1ccc(C)cc1	-1%	x	-2%	3%	x	u	-9%	-1%
COc1cc(NC(=O)CCc2nnc3ccc(NCc4ccco4)nn23)cc(OC)c1	10%	x	x	5%	x	x	-23%	-4%
COc1ccc(S(=O)(=O)NC2CCCC2)c(OC)c1	9%	x	x	7%	x	x	59%[activator]	-1%
COc1ccc(CCNC(=O)c2ccc3c(c2)N(Cc2ccc(C)cc2)CCS3)cc1OC	-1%	-3.7%	u	7.9µM*	-2%	u	u	-4%
CC(C)N1CCc2c(sc(NC(=O)c3ccc(S(=O)(=O)N4CCCCC4C)cc3)c2C(N)=O)C1 (stereo not given)	-5%	x	x	-6%	x	x	4%	-2%
CC(=O)c1ccc(S(=O)(=O)N2CCN(c3nc4c(C)c(C)ccc4cc3C#N)CC2)cc1	18%	x	18µM*	x	x	u	u	x
COc1cc(CC(=O)Nc2cccc(SC)c2)cc(OC)c1OC	-4%	x	-1%[46.1 µM]	x	x	u	-29%	-1%
Cc1ccc(C(C)C)c(OCC(=O)Nn2c(C)nc3ccccc3c2=O)c1	-7%	-1.4%	15%	-9%	6%	-1%	-26%	-9%
O=C(CN1C(=O)NC2(CCCCC2)C1=O)Nc1cccc(S(=O)(=O)N2CCOCC2)c1	-1%	x	x	3%	x	x	3%	-1%
Cc1ccc(C(=O)Nc2ncc(Cc3ccccc3)s2)o1	-17%[3.69 µM]	-1.8%	u	-14%	-6%	5.2µM*	-10%	-7%
CCCCN(CCCC)C(=S)NC(=O)c1ccccc1Cl	3%	-7.8%	9%	-25%	-14%	-1%	5%	-35%
O=C(COC(=O)C1CCN(S(=O)(=O)c2cccc3cccnc23)CC1)c1ccc([N+](=O)[O-])cc1	0%	-2.9%	8%	8%	-15%	0%	-21%	-2%
CN1C(=O)/C(=C/C=C/c2ccco2)C(=O)NC1=S	-2%	x	x	9%	x	x	u	1%
COc1ccc(CNc2ncnc3onc(-c4ccc(F)cc4)c23)cc1	x	-4.7%	12%[46.1 µM]	x	12%	x	-27%	x
COc1cccc(CC(=O)Nc2ccc(S(=O)(=O)Nc3nc(C)cc(C)n3)cc2)c1	-12%	x	-4%	x	x	-2%	79%[activator]	4%
CN(C)c1nc2ncn(Cc3ccccc3)c2c(=O)[nH]1	-6%	x	x	1%	x	x	-6%	0%
CCN1CCN(c2oc(-c3ccc([N+](=O)[O-])cc3)nc2C#N)CC1	2%	x	-4%	-52%	x	-1%[46.1 µM]	-9%	0%
CC(C)OC(=O)C(NC(=O)c1ccccc1)=C1CCCCC1	9%	4.0%	u	-6%	1%	-4%	1%	7%
CCOC(=O)C1CCCN(C(=O)c2cc3ncc(Br)cn3n2)C1 (stereo not given)	-6%	2.8%	-18%	-1%	u	2%	-18%	0%
CCCC1(C(=O)OCC)NC(c2ccc(N(C)C)cc2)C2C(=O)N(c3ccc(F)cc3)C(=O)C21 (stereo not given)	1%	-6.9%	-14%	-17%	-16%	-19%&-19%	-13%	-1%
CC(c1ccc(F)cc1)n1cc(C(=O)NCCN(C)C)nn1 (stereo not given)	-1%	x	u	1%	x	2%	-8%	15%
CCN(CC)C(=O)Oc1ccc(NC(=O)N2CCOCC2)cc1	5%	x	x	2%	x	x	-5%	3%
CN(C)NC(=O)c1csnc1-c1c(Cl)cccc1Cl	5%	x	-14%[46.1 µM]	2%	x	4%[46.1 µM]	7%	1%
CC1(C)CC(=O)C2=C(C1)Nc1ccccc1NC2c1ccccn1 (stereo not given)	13%	-11%	12%	1%	-12%	-27%	6%	-11%
Cn1c(O)c(C(=N)COc2cccc(Cl)c2)c(=O)n(C)c1=O	14%[3.69 µM]	1.6%	9%	4%	-5%	4%	-3%	-2%
CC(=O)Nc1ccc(S(=O)(=O)Nc2nnc(CC(C)(C)C)s2)cc1	23%	x	-4%	2%	x	-6%[46.1 µM]	4%	-2%
[O-][N+]1=C2CCC/C(=N\O)C2=NC12CCCCC2	0%	2.1%	9%	-3%	-3%	28%	x	-7%
CCc1cc(C(=O)N/N=C/c2ccc(O)cc2O)c2ccccc2n1	3%	x	u	4%	x	u	6%	x
CCOC(=O)c1c(C)[nH]c(C(=O)N/N=C/c2ccc(Br)cc2)c1C	-2%	-1.1%	u	1%	25%	2.8µM*	-19%	2%
O=C(Cc1cccs1)Nc1cccc(-c2ccc3nncn3n2)c1	-4%	x	17%[46.1 µM]	x	x	u	0%	1%
COc1ccc(-n2c(C(C)n3nc(C)c([N+](=O)[O-])c3C)n[nH]c2=S)cc1 (stereo not given)	14%	-2.0%	3%	9%	-3%	4%	0%	-13%
O=S(=O)(NCC1CCCO1)c1ccc(S(=O)(=O)N(Cc2ccc(F)cc2)C2CCCCC2)cc1 (stereo not given)	8%	x	-17%	x	x	-1%	13%	x
Cc1nc(N2CCCCC2)sc1C(=O)c1ccc(SCCO)c([N+](=O)[O-])c1	-15%	x	u	x	x	u	32µM*	1%
Fc1ccc(-c2nc(Nc3cccc(Cl)c3)nc3c2COc2ccccc2-3)cc1	x	-3.9%	-2%[46.1 µM]	x	u	27%[46.1 µM]	-10%	x
CC(C)CCOc1cccc(OCC(=O)Nc2ccncc2)c1	-9%	x	-12%[46.1 µM]	-109%	x	u	-27%	-77%
CCOC(=O)c1cnn(-c2ccccc2)c1-n1cccc1C(=O)C(=O)Nc1ccccc1	-3%	-4.5%	11%	10%	3%	u	7%	-7%

Continued:
SMILES	RE007 growth inh	Cruzain Triton	LASV entry inh	NS1 inh	Cruzain noTriton	Marburg entry inh	StopGo reporter	SARS PLpro yeast
C=CCn1c(SCC(=O)NC2CC2)nc2sc(CC)cc2c1=O	4%	x	3%	-4%	x	-6%	-4%	2%
O=C(NCCc1nnc2ccc(N3CCCCCC3)nn12)c1ccccc1F	5%	x	u	x	x	27%	12%	x
O=C(N/C(=C\c1ccc(Br)cc1)C(=O)N1CCCC1)c1ccccc1F	2%	x	u	4%	x	u	-3%	0%
COc1ccc(-n2cc(C(=O)Oc3cc(C)cc(C)c3)c3ccccc3c2=O)cc1	x	-0.8%	-2%[46.1 µM]	x	1%	x	-22%	x
COc1ccc(CC(=O)NCCc2ccc(OC)c(OC)c2)cc1	-2%	x	5%[46.1 µM]	0%	x	-2%[46.1 µM]	-5%	1%
NC(=O)c1cccc2c3c([nH]c12)CCCC3	-19%	-4.2%	27%	-15%	-1%	4%	28%	-1%
CN(Cc1ccno1)C(=O)CC1C(=O)NCCN1CC(c1ccccc1)c1ccccc1 (stereo not given)	-20%	x	9%[46.1 µM]	2%	x	-9%[46.1 µM]	-5%	1%
COc1ccc(NC(=O)C2CCN(c3nc4ccccc4[nH]3)CC2)cc1OC	x	3.9%	0%[46.1 µM]	x	-21%	x	6%	x
COc1ccc(Cl)cc1NC(=O)CSc1nnc(C)c(=O)n1N	18%	x	-1%	23%	x	0%	-18%	4%
Cc1cccc(NC(=O)CN(c2ccc(C(C)C)cc2)S(=O)(=O)c2c(C)nn(C)c2C)n1	-9%	-5.6%	x	0%	u	0%	-17%	1%
CCn1c(=O)c2cc(C(=O)NCc3cc(OC)ccc3OC)sc2c2ccccc21	x	0.4%	-27%[46.1 µM]	x	8%	-23%[46.1 µM]	-11%	x
Cc1ccc(NC2CCCN(C(=O)c3cccc(-c4ncc[nH]4)c3)C2)cc1C (stereo not given)	-13%	x	x	-7%	x	x	-12%	-2%
O=C(c1cc2cc(F)ccc2[nH]1)N1CCC(Cc2ccccc2)CC1	8%	x	11%[46.1 µM]	1%	x	-20%[46.1 µM]	11%	0%
CN(C)c1ccc(/C=N\Nc2ccccn2)cc1	-15%	x	u	-12%	x	-27%	22%	2%
COc1ccc(C(CCNC(C)c2ccccc2)c2ccc(F)cc2)cc1 (stereo not given)	x	1.0%	u	-12%	-9%	u	31%[activator]	10%
CCCN(CC(=O)NC(=O)NC1CCCCC1)CC(=O)Nc1cc(Cl)ccc1Cl	-14%	x	u	x	x	u	2%	1%
